RecA splice inh: inhibitors of M. tuberculosis RecA intein splicing; hit rate 0.75% among 290,000; cell-free RecA intein splicing, fluorescence; AID 2221; inhibition, %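 (about 9 µM by stock and volumes)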; P9WHJ3; in the data active = inhibition above about 30%; inconclusive = no clear call, values can overlap the other calls;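 also: 0% = vehicle wells and 100% = reference inhibitor control wells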
Target sequence (P9WHJ3 whole entry, looked up, canonical isoform): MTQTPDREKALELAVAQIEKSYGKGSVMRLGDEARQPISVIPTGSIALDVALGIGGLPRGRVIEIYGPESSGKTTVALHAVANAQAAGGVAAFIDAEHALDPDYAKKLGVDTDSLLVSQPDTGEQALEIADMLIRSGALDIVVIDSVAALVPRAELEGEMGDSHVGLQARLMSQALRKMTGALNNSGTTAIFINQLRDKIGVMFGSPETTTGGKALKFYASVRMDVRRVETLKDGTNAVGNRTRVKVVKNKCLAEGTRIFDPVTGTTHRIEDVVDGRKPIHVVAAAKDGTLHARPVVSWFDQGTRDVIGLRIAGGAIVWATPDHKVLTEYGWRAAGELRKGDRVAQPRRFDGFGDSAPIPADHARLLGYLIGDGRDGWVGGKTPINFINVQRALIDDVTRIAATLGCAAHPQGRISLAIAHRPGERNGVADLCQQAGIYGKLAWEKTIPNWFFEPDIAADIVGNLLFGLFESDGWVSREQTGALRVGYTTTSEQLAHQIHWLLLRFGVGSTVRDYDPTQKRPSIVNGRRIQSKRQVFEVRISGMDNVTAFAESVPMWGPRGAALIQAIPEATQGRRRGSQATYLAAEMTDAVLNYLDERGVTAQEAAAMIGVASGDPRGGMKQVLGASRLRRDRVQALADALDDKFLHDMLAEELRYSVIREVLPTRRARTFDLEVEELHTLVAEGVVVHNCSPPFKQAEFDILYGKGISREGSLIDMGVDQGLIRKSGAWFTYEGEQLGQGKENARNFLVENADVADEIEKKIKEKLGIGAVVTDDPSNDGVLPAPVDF
Mtb betalactam: beta-lactam sensitization of Mtb H37Rv; M. tuberculosis H37Rv growth with meropenem, percent inhibition; hits of this screen are not shown here; inhibition, % at 25 µM; hit rate 0.27% among 330,000; AID 434955;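 active = about 74% or more and at least 40 points above the plate without the antibiotic, then above 30% in a dose series; inconclusive = first-round hits that could not be retested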;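 also: growth measured after seven days incubation then overnight dye step; 0% = bacteria only wells and 100% = bacteria with antibiotic; twin plates without the antibiotic show which effects depend on it; some results filed as inactive read as strong as hits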
YopH inh: inhibitors of Yersinia enterocolitica YopH tyrosine phosphatase; fluorescence Ex485/Em525; inhibition, %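 (about 10 µM by stock and volumes)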; hit rate 0.16% among 140,000;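 active = inhibition of 50% or more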;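 also: controls were vehicle for no effect and minimum signal wells for full effect; inactives centre near -20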
Arbovirus inh: antivirals against arbovirus infection; AID 1251; arbovirus infection cell-based antiviral screen; inhibition, % at 10 µM; hit rate 0.37% among 200,000;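 active = inhibition from about 30%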;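 also: bluetongue infection of BSR cells; cell survival read as ATP light after 72 h; 0% = infected wells without compound and 100% = uninfected wells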
Mtb H37Rv: M. tuberculosis H37Rv growth inhibitors, H37Rv strain (AID 1626); inhibition, % at 10 µM; hits with a dose series show IC50 in µM; hit rate 0.95% among 220,000; M. tuberculosis H37Rv growth inhibition; higher % means a stronger effect;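 active = confirmed in a dose series; inconclusive = inhibition above 80% but not taken into the dose series; inactive = below 80% or under 30% at every dose of the series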;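 also: bacteria incubated seven days before Alamar blue readout; 0% = bacteria only wells and 100% = bacteria with antibiotic wells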
Arbovirus inh repeat: recorded beside Arbovirus inh, whose call it bears; inhibition, %; measured here: 10K subset replicate screen; many hits read low in the repeat;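 first of two repeat runs on a subset; 0% = infected and 100% = uninfected wells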
Active calls of the source: *; ? = inconclusive; nt = no result given. Not all compounds are listed (hit frequency here may not be typical).

The first 12 entries, to show the layout:
SMILES | RecA splice inh | Mtb betalactam | YopH inh | Arbovirus inh | Mtb H37Rv | others
Cc1cccc(C(=O)Nc2cccc(Br)c2)c1[N+](=O)[O-] | 7.0 | -1.5 | nt | -5.7 | -3.2%
CCOC(=O)c1cc(-c2ccccc2)n(CC(=O)Nc2ccc(OCC)cc2)c1C | -4.8 | -5.3 | -54.3 | -0.1 | 2.0%
Cc1ccc(Cn2nnc3c(=O)n(Cc4cc(C)ccc4C)cnc32)cc1 | -0.7 | 8.9 | -30.5 | 1.5 | 1.6%
COc1cccc(/C=C/C(=O)OCC(=O)Nc2ccc3[nH]c(=O)[nH]c3c2)c1OC | 1.1 | 0.5 | nt | nt | nt
Cc1cc(C(=O)N2CCN(S(=O)(=O)c3ccccc3)CC2)c(C)o1 | 1.4 | -10.9 | nt | nt | nt
Cc1ccc(S(=O)(=O)CCC(=O)N(CCN2CCOCC2)c2nc3ccccc3s2)cc1 | 4.3 | 1.6 | nt | nt | nt
O=S(=O)(c1cc(O)ccc1O)c1cccc2c(S(=O)(=O)c3cc(O)ccc3O)cccc12 | 9.2 | -6.2 | nt | nt | nt
CC(C)CN1C(=O)c2ccc(C(=O)NCc3ccc4c(c3)OCO4)cc2C1=O | 0.0 | -3.2 | -19.9 | -4.4 | -3.2%
CCCNC(=O)CSC1=N/C(=C/c2ccc(F)cc2)C(=O)N1CC | -3.3 | -0.9 | -13.7 | 4.1 | 5.8%
O=C(CN1C(=O)NC2(CCCC2)C1=O)Nc1ccccc1N1CCCC1 | -1.1 | -5.0 | nt | nt | nt
O=C(O)CCc1nc2cccnc2n1Cc1ccccc1 | -2.1 | -5.9 | -57.5 | 8.5 | 0.1%
CC1(c2ccccc2)NC(=O)N(CC(=O)Nc2ccc(S(=O)(=O)Nc3ncccn3)cc2)C1=O (centres undefined) | -2.2 | -5.7 | nt | nt | nt

This part in full, previewed entries included:
SMILES | RecA splice inh | Mtb betalactam | YopH inh | Arbovirus inh | Mtb H37Rv | others
Cc1cccc(C(=O)Nc2cccc(Br)c2)c1[N+](=O)[O-] | 7.0 | -1.5 | nt | -5.7 | -3.2%
CCOC(=O)c1cc(-c2ccccc2)n(CC(=O)Nc2ccc(OCC)cc2)c1C | -4.8 | -5.3 | -54.3 | -0.1 | 2.0%
Cc1ccc(Cn2nnc3c(=O)n(Cc4cc(C)ccc4C)cnc32)cc1 | -0.7 | 8.9 | -30.5 | 1.5 | 1.6%
COc1cccc(/C=C/C(=O)OCC(=O)Nc2ccc3[nH]c(=O)[nH]c3c2)c1OC | 1.1 | 0.5 | nt | nt | nt
Cc1cc(C(=O)N2CCN(S(=O)(=O)c3ccccc3)CC2)c(C)o1 | 1.4 | -10.9 | nt | nt | nt
Cc1ccc(S(=O)(=O)CCC(=O)N(CCN2CCOCC2)c2nc3ccccc3s2)cc1 | 4.3 | 1.6 | nt | nt | nt
O=S(=O)(c1cc(O)ccc1O)c1cccc2c(S(=O)(=O)c3cc(O)ccc3O)cccc12 | 9.2 | -6.2 | nt | nt | nt
CC(C)CN1C(=O)c2ccc(C(=O)NCc3ccc4c(c3)OCO4)cc2C1=O | 0.0 | -3.2 | -19.9 | -4.4 | -3.2%
CCCNC(=O)CSC1=N/C(=C/c2ccc(F)cc2)C(=O)N1CC | -3.3 | -0.9 | -13.7 | 4.1 | 5.8%
O=C(CN1C(=O)NC2(CCCC2)C1=O)Nc1ccccc1N1CCCC1 | -1.1 | -5.0 | nt | nt | nt
O=C(O)CCc1nc2cccnc2n1Cc1ccccc1 | -2.1 | -5.9 | -57.5 | 8.5 | 0.1%
CC1(c2ccccc2)NC(=O)N(CC(=O)Nc2ccc(S(=O)(=O)Nc3ncccn3)cc2)C1=O (centres undefined) | -2.2 | -5.7 | nt | nt | nt
CC1CCN(C(=O)CSc2nnc(Cc3ccccc3)o2)CC1 | -1.4 | -3.5 | -15.8 | -2.6 | -5.8%
CN(C)CCNC(=O)C(c1ccccc1)c1ccccc1 | -1.6 | 4.1 | nt | nt | -6.2%
N#Cc1c(-c2ccc(F)cc2)cc(-c2ccccc2)nc1SCC(=O)NCC(=O)O | 0.2 | -6.9 | nt | nt | 4.7%
O=C(NCCN1CCNC1=O)C1CCC(=O)N(Cc2cccc(C(F)(F)F)c2)C1 (centres undefined) | -0.8 | 1.4 | nt | nt | nt
Cc1cc(Cl)c2oc(C(=O)N(CCO)Cc3ccccc3)c(C)c2c1 | 7.8 | 5.4 | nt | nt | nt
CCOC(=O)Cn1nnc(-c2ccc([N+](=O)[O-])cc2)n1 | 0.4 | -2.9 | nt | 1.8 | 4.9%
CC(C)(SC(=S)N1CCCCCC1)C(=O)O | 0.6 | -6.4 | nt | 2.0 | -3.0%
Cc1c(/C=N/NC(=O)C(NC(=O)c2ccc3c(c2)OCO3)C(C)C)c2ccccc2n1C (centres undefined) | -0.2 | 0.8 | -17.3 | 7.0 | 4.0%
CCCCC1CCC(C(=O)NCc2ccc3c(c2)OCO3)CC1 (centres undefined) | -0.2 | 4.0 | -14.2 | -4.5 | -3.5%
CC(C)Oc1ccc(C2CC(=O)N(c3cccc(/C=C/C(=O)O)c3)C2=O)cc1 (centres undefined) | -1.5 | -1.6 | nt | nt | nt
CC(Oc1ccccc1)C(=O)N=C1SC2CS(=O)(=O)CC2N1c1ccc(F)cc1 (centres undefined) | 1.0 | -0.6 | nt | nt | nt
CCOc1cc(NC(=S)NCCCN2CCOCC2)c(OCC)cc1NC(=O)c1ccc(C)cc1 | 1.1 | 17.1 | nt | -4.0 | 7.4%
O=C1OC(c2ccc(Cl)cc2)=N/C1=C\c1cccnc1 | -0.7 | 50.6 | -20.8 | 0.4 | -9.2%
SMILES | RecA splice inh | Mtb betalactam | YopH inh | Arbovirus inh | Mtb H37Rv | others
COc1ccccc1NC(=O)CSc1nnc(C)n1CC1CCCO1 (centres undefined) | 0.8 | -3.1 | -16.0 | -1.1 | -12.6%
N#Cc1cnn(-c2ccccc2)c1NC(=O)CN1CCOCC1 | 0.4 | -11.5 | nt | nt | 6.3%
COc1cccc(CNC(=O)Nc2cccs2)c1 | 2.5 | -12.8 | -12.7 | -7.6 | 0.3%
Cc1ccc(OCCOC(=O)c2nc3nccc(C)n3n2)cc1 | 0.9 | -1.1 | nt | -0.5 | -6.5%
Cc1cccc(C(=O)NCCN2CCN(c3ccccc3)CC2)c1 | -0.6 | -5.6 | -22.7 | 6.6 | -2.3%
COC(C(=O)Nc1c(F)cccc1F)c1ccccc1 (centres undefined) | 1.1 | 0.2 | nt | -1.9 | -1.7%
Cc1ccccc1N1CCN(C2CCCN(C(=O)c3csc(C(C)C)n3)C2)CC1 (centres undefined) | 3.8 | ? | nt | nt | nt
CNC(=O)C1CCN(S(=O)(=O)c2c(C)noc2/C=C/N(C)C)CC1 | -0.3 | 2.6 | nt | nt | nt
O=C(CSc1nc2ccccc2o1)NCc1ccco1 | 0.7 | 51.1 | -39.1 | 13.9 | 1.3% | Arbovirus inh repeat=1.4
Cc1c(CCC(=O)NCCCn2ccnc2)c(=O)oc2c(C)c3oc4c(c3cc12)CCCC4 | 6.3 | 33.2 | nt | nt | nt
COc1ccc(NS(=O)(=O)c2cccc(C(=O)OCC(=O)NC3CC3)c2)cc1 | -1.9 | -4.2 | nt | nt | nt
O=C(Oc1ccccc1)n1c(=S)oc2ccccc21 | 0.4 | -3.3 | -40.0 | -1.1 | 9.8%
NC(=O)c1oc2ccccc2c1NC(=O)C1CCCCC1 | 0.7 | -0.4 | -27.6 | -4.5 | 5.6%
Cc1ccc(NC(=O)CSc2ncn[nH]2)cc1 | 2.9 | -3.1 | nt | 27.7 | 10.2%
O=C(NCc1ccccc1)c1ccc(N2CCC3(CC2)CC(c2ccc(Cl)cc2)=NO3)c([N+](=O)[O-])c1 | 18.1 | 10.3 | nt | nt | nt
CCN1C(=O)C(CC(=O)Nc2cc(C)ccc2C)SC1=Nc1ccc(S(N)(=O)=O)cc1 (centres undefined) | 1.4 | nt | -15.4 | 0.5 | -5.4%
COc1oc(-c2ccccc2C)nc1C(F)(F)F | nt | -5.2 | 11.9 | -1.7 | -7.4%
COC(=O)CNC(=O)c1c(-c2c(Cl)cccc2Cl)noc1C | -0.2 | -5.5 | -20.8 | 3.7 | 0.0%
Cc1noc(C)c1COc1ncnc2ccccc12 | -2.7 | -1.0 | nt | 4.4 | -1.9%
COc1ccc(C(=O)Nc2cccc(-c3nc4ncccc4o3)c2C)cc1OC | 3.3 | -6.1 | -29.9 | -12.5 | 3.8%
O=C(C1COc2ccccc2O1)N1CCN(c2ccccc2)CC1 (centres undefined) | 1.1 | -9.8 | -33.1 | 5.3 | 0.4%
Clc1cccc(/C=N\Nc2nccs2)c1 | 0.5 | 93.8 | -6.3 | 1.5 | 5.6%
CN(CC(=O)Nc1cccc(F)c1)C(=O)c1cc(-c2ccco2)nc2ccccc12 | 3.3 | -0.9 | nt | nt | nt
COC(=O)CCSCc1cn2cc(Cl)ccc2n1 | -2.1 | -13.7 | -3.3 | 0.9 | 3.4%
O=C1C2CCN(CC2)C1Cc1ccc(OCCOc2ccccc2)cc1 (centres undefined) | 0.1 | 84.7 | -24.4 | -12.8 | 1.3%
SMILES | RecA splice inh | Mtb betalactam | YopH inh | Arbovirus inh | Mtb H37Rv | others
CCn1c(=O)c(C(=O)CN2CCN(Cc3ccc4c(c3)OCO4)CC2)c(N)n(Cc2ccccc2)c1=O | 1.8 | -6.7 | nt | -11.7 | -7.1%
CN(CCO)c1c2c(nc3cc(-c4cccc(F)c4)nn13)CCCC2 | 0.0 | -9.5 | -10.3 | 8.7 | -2.9%
COCCCNc1nc(-c2ccncc2)nc2ccccc12 | 1.1 | 15.6 | -10.5 | 32.6* | -6.5%
CC1SCC(=O)N(CC(=O)Nc2ccc3c(c2)OCCO3)C1=O (centres undefined) | 1.1 | -0.8 | nt | 4.4 | 2.4%
COc1cc(C(=O)O/N=C2\C=CC(=O)C=C2C)cc(OC)c1OC | 4.5 | 4.5 | -20.1 | -3.3 | -0.4%
CCc1cccc(CC)c1NC(=O)c1cccc(N)c1 | 0.9 | 5.1 | -3.1 | -6.6 | -5.1%
CC(C)(C)c1ccc(NC(=O)NC2CCCc3ccccc32)cc1 (centres undefined) | nt | -1.2 | nt | nt | 1.3%
O=C(CCn1c2c(c3ccccc31)CCCC2)NNC(=O)c1ccccc1[N+](=O)[O-] | 1.4 | 5.4 | -18.8 | -1.7 | -3.1%
N#Cc1ccc(-c2cccs2)nc1SCc1cccnc1 | 2.4 | 40.5 | nt | nt | 4.6%
O=C(c1cccc(C(F)(F)F)c1)N1CCC2(CC1)NCCc1[nH]cnc12 | 0.6 | -4.9 | nt | nt | nt
CCOc1ccc(NC(=O)C2CCN(C(=O)NC3CCCCC3)CC2)cc1 | 0.9 | 42.2 | -20.6 | -0.3 | 33.1%
OC1CN=C2C=CC=CN2C1 (centres undefined) | -1.5 | -3.2 | -35.3 | 8.3 | -0.5%
COc1ccc2cc1Oc1ccc(cc1)C[C@H]1c3cc(c(OC)cc3CCN1C)Oc1c(OC)c(OC)cc3c1[C@H](C2)N(C)CC3 | 0.2 | 13.7 | nt | nt | 8.2%
O=C(Nc1ccccc1)c1cccn(Cc2ccccc2)c1=O | 1.5 | 1.9 | nt | 11.3 | -7.0%
O=C(CSc1ccc(-c2ccco2)nn1)N1CCCCC1 | 8.9 | -12.7 | nt | 23.4 | -2.4%
C/C(CC(=O)Nc1ccc(F)cc1F)=N\NC(=O)C(=O)N1CCCCC1 | 78.3* | -3.6 | nt | nt | nt
CC1CCCN(c2ccc(C(=O)NCc3ccc4c(c3)OCO4)cc2[N+](=O)[O-])C1 (centres undefined) | 5.0 | 18.3 | 15.8 | -2.5 | 3.8%
O=C(Nc1nnc(SCc2ccccc2)s1)c1cccc([N+](=O)[O-])c1 | 3.2 | -2.4 | -10.2 | -6.2 | nt
CCCC[N+]1(C)C2CC(OC(=O)C(CO)c3ccccc3)CC1C1OC12 (centres undefined) | 0.6 | 0.9 | nt | nt | -7.7%
CCOc1ccccc1CNCCOC | -1.4 | -10.7 | nt | 5.0 | -4.5%
O=C(CSc1nc2ccccc2s1)N/N=C/c1ccc(C(=O)O)cc1 | 0.4 | -0.6 | nt | 7.8 | 5.8%
CCOc1ccc(S(=O)(=O)Nc2ccc3c(c2)n(C)c(=O)n3C)cc1 | -3.7 | -5.9 | nt | nt | nt
CC1=C(C(=O)NC2CCCCC2C)C2(CCC(C)CC2)OC1=O (centres undefined) | -1.6 | 6.7 | -27.0 | -5.5 | 1.9%
Fc1cccc(Cl)c1/C=N/Nc1c(Cl)cncc1Cl | 3.2 | 8.6 | -33.6 | -11.2 | -7.4%
CN(Cc1cn[nH]c1-c1ccc(-c2ccccc2)cc1)CC1CCOCC1 | -1.2 | -4.3 | nt | nt | 5.5%
Clc1ccc(SCc2csc(N3CCOCC3)n2)cc1 | 0.0 | 1.9 | nt | nt | -1.4%

Screens deposited in PubChem BioAssay by several laboratories.
